Compound activity from PubChem BioAssay.
MT1-MMP act inh = MT1-MMP (human) activation inhibition; P50281; HT1080 RFP-PRO-GFP cells, GFP/RFP ratio fluorescence, overnight; percent of plate control window, DMSO zero; GFP/RFP ratio change, % at 20 µM; 0.061% of 360,000 active; AID 651647;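 active means GFP/RFP ratio change of at least 30% with cell ATP level not reduced by more than half and red fluorescence within 50% of control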; further: strong numbers were not always called active
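Assay system: HT1080 RFP-PRO-GFP cells. Benchmarks: DMSO vehicle wells and RFP-L50D-GFP reporter cell wells. Times: overnight cell settling, then overnight compound exposure, 37 °C, 5% CO2. Compound: 20 µM single dose, 1% DMSO. Read-out basis: GFP/RFP fluorescence ratio.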
UUG fidelity = yeast start codon fidelity modulation; S. cerevisiae UUG-firefly luciferase reporter, luminescence/redox ratio; activity score, % at 18.7 µM; 0.13% of 350,000 active; AID 602363;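 active means replicate mean at a twofold rise or more, about +100% in these data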;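 further: firefly luciferase made from a UUG start codon reports start codon fidelity; reporter light over untreated wells divided by growth signal over untreated wells; some hits fall short of that in this replicate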
Rce1 inh = yeast Ras-converting enzyme inhibition; Q03530; yeast membranes, quenched prenylated peptide cleavage fluorescence; calls only; 0.27% of 290,000 active; AID 2563;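 active means fall in fluorescence gain of 50% or more versus controls, with final raw signal at or below 3038400; inconclusive means same 50% fall but final raw signal above 3038400; inactive means fall in fluorescence gain under 50%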;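 further: plate controls were neutral control wells for no effect and wells lacking membranes for full effect; tested at 10 µM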
CSC inhib = blocks cancer stem cells; cancer stem cell-like cells viability, luminescence; inhibition, % at 7.5 µM; 1.1% of 300,000 active; AID 2717;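 active means mean at 75% or more and at least half the replicates too; inconclusive means mean and replicates disagree; tested in HMLE shEcad cells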;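 further: 0% = median of negative and 100% = median of positive control wells; the first replicate is given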
Env fusion inh = HIV envelope-mediated fusion inhibition; AID 651610; 1.1% of 360,000 active; HeLa-JRFL Env/CEM21 cell fusion, luciferase; inhibition, % at 12.3 µM;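 active means mean replicate inhibition score of at least 50 and every replicate individually at or above 50; inconclusive means only one of the two criteria met; inactive means mean below 50 and not all replicates reaching 50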;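 further: 0% = plate neutral controls and 100% = maraviroc near 300 nM; one replicate is shown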
PABP FP inh = blocks human PABP binding to poly(A) RNA; P11940; fluorescence polarization; inhibition, % at 35 µM; 1% of 290,000 active; AID 2014;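 active means 50% or more with normal probe brightness, or confirmed in later tests; inconclusive means above 50% with abnormal brightness, or retests that disagree; inactive means below 50% or failed in later tests; about a fifth of its hits are not listed in these tables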;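 further: calls also rest on retests at 20 µM and on dose response follow-up; controls were probe without protein and protein plus probe with vehicle; some compounds called inactive have numbers as strong as hits; many hits fall short of the cut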
Target sequence (P11940 whole entry, looked up): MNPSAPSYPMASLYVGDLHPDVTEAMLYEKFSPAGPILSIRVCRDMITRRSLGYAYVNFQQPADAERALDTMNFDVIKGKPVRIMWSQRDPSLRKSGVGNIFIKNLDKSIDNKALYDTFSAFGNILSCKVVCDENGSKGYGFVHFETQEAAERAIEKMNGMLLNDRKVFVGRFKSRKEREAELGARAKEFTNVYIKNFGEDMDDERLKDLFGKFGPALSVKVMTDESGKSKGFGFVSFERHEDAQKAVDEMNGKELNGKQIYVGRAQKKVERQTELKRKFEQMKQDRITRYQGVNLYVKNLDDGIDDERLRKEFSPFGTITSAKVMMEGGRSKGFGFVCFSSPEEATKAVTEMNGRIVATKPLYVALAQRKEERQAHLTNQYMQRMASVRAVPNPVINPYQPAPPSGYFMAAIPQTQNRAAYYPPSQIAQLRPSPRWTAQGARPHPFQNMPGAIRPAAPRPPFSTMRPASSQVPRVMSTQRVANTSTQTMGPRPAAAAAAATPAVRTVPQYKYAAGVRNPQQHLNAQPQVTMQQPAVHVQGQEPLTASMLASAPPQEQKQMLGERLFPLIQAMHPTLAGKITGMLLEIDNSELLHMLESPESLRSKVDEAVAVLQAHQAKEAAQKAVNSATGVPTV
eIF4H FP inh = inhibitors of RNA binding by human eIF4H; Q15056; eIF4H fluorescence polarization binding assay; inhibition, % at 35 µM; 0.94% of 290,000 active; AID 2012;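 active means 50% or more with normal probe brightness, or confirmed in later tests; inconclusive means above 50% with abnormal brightness, or retests that disagree; inactive means below 50% or failed in later tests; about a fifth of its hits are not listed in these tables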;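 further: calls also rest on retests at 20 µM and on dose response follow-up; 0% = protein and probe with vehicle and 100% = probe without protein; strong numbers were not always called active; many hits fall short of the cut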
MT1-MMP act inh RFP = recorded beside MT1-MMP act inh, whose call it bears; RFP signal change, %; measured here: RFP expression control read;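 0 = vehicle wells; hits needed this value within 50% of zero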
Active calls of the source: *; i = inactive; u = inconclusive; x = no result given. Only part of the results is shown, so the mix of outcomes need not match the whole.

1	O=C(O)c1ccc(N=N/C(=N\Nc2ccc(C(=O)O)cc2)c2ccccc2)cc1
2	O=C1CC(c2cccs2)CC2=C1C(c1ccccc1)n1ncnc1N2 (stereo not drawn)
3	CCOC(=O)C[n+]1c(C)sc2ccc(OC)cc21
4	NC1=NC[C@H](Cc2ccc(O)cc2)N1CC1CCCCC1
5	CCN(CC)c1ccc(NC(=O)c2cccnc2)c(C)c1
6	CCN(CC)C(=O)CSc1nnc(-c2ccccc2)c(-c2ccccc2)n1
7	Cn1nnc(NC(=S)NC(=O)c2cc(Cl)ccc2Cl)n1
8	Cc1cc(NC(=O)C(C)SCC(=O)OCc2c(Cl)cccc2Cl)no1 (stereo not drawn)

compound no.,1,2,3,4,5,6,7,8
MT1-MMP act inh,31*,3,3,-2,-1,1,-3,-2
MT1-MMP act inh RFP,0.5*,1,1,1,-1,-1,2,3
UUG fidelity,-13,-13,29,-17,-27,-8,x,9
Rce1 inh,i,i,i,i,i,i,i,i
CSC inhib,15,-3,-9,8,7,40,10,6
Env fusion inh,23,x,x,-29,-104,-8,0,-7
PABP FP inh,x,-3,8,10,2,-6,-1,-3
eIF4H FP inh,x,-12,-5,-9,2,-3,7,-8

9	COc1ccc(N2CCN(C(=O)COC(=O)c3ccc(C)o3)CC2)cc1
10	C/C(=N\N=C(N)N)c1ccc(Cl)cc1Cl
11	Cc1nc(N)sc1C(=O)N/N=C/c1ccc([N+](=O)[O-])cc1
12	COc1ccc(CN(C(=O)c2snc(C(N)=O)c2N)C(C(=O)NC2CCCC2)c2cc(OC)ccc2OC)cc1 (stereo not drawn)
13	O=S(=O)(NC1CCCCC1)c1ccc(S(=O)(=O)N2CCN3CCCC3C2)cc1 (stereo not drawn)
14	Cc1ccc(-c2nc(NCc3ccco3)c3ccccc3n2)cc1
15	Cc1ccc(C(=O)N/C(=C/c2ccc(Cl)cc2)C(=O)N2CCOCC2)cc1
16	Cc1ccc(CNc2nc(NCc3ccccc3)nc3ccsc23)c(C)c1

compound no.,9,10,11,12,13,14,15,16
MT1-MMP act inh,-2,-5,0,-6,2,-2,4,4
MT1-MMP act inh RFP,2,-6,-1,-5,-2,-4,-1,-22
UUG fidelity,x,x,0,x,x,x,-16,-17
Rce1 inh,i,i,i,i,i,i,i,x
CSC inhib,-12,11,-9,-5,x,96*,-2,x
Env fusion inh,x,-7,2,-6,x,13,1,36
PABP FP inh,x,-2,-8,5,4,-4,5,x
eIF4H FP inh,x,-1,21,10,-2,-7,-3,x

An excerpt of these results, with bars between the fields.
entry | structure | MT1-MMP act inh | MT1-MMP act inh RFP | UUG fidelity | Rce1 inh | CSC inhib | Env fusion inh | PABP FP inh | eIF4H FP inh
13 | O=S(=O)(NC1CCCCC1)c1ccc(S(=O)(=O)N2CCN3CCCC3C2)cc1 (stereo not drawn) | 2 | -2 | x | i | x | x | 4 | -2
2 | O=C1CC(c2cccs2)CC2=C1C(c1ccccc1)n1ncnc1N2 (stereo not drawn) | 3 | 1 | -13 | i | -3 | x | -3 | -12
1 | O=C(O)c1ccc(N=N/C(=N\Nc2ccc(C(=O)O)cc2)c2ccccc2)cc1 | 31* | 0.5* | -13 | i | 15 | 23 | x | x

Other entries follow.
17	O=c1cc(OCc2ccccc2)cc[nH]1
18	CCC(=O)NCCc1cc2ccc(C)c(C)c2[nH]c1=O
19	Cc1nc2c(=O)[nH]n(C)c2nc1C
20	Cc1ccc2cc(CN(Cc3ccco3)C(=S)NCC3CCCO3)c(=O)[nH]c2c1C (stereo not drawn)
21	O=C(CSc1nnc(CNC(=O)c2ccccc2)o1)NCc1ccc2c(c1)OCO2
22	CCOC(=O)/C=C/c1ccc2oc3ccccc3c(=O)c2c1
23	Cc1sc2ncnc(N3CCC(C)CC3)c2c1C
24	CCCCN1CC(=O)N2[C@H]3c4cc(Br)ccc4OC[C@@H]3[C@H](C(=O)OCC)[C@]2(C)C1=O

compound no.,17,18,19,20,21,22,23,24
MT1-MMP act inh,0,2,3,-4,-1,6,-5,-6
MT1-MMP act inh RFP,2,4,5,-5,1,2,-11,-2
UUG fidelity,-22,-19,-20,-13,-12,-13,-15,0
Rce1 inh,x,i,x,i,i,i,i,x
CSC inhib,x,-2,x,7,-8,8,4,15
Env fusion inh,9,-12,-46,11,-8,-47,x,-29
PABP FP inh,x,1,x,-6,3,0,-4,x
eIF4H FP inh,x,4,x,0,-14,-11,9,x

25	O=C(NCc1ccc(F)cc1)C(Cc1ccccc1)n1cccc1 (stereo not drawn)
26	Fc1ccc(-c2nnc(CN3CCC(c4nc5ccccc5s4)CC3)o2)cc1
27	CC(C)C[C@H]1CNC(=S)N1CC1CCCN1C[C@H](Cc1ccccc1)N1C[C@H](Cc2ccc(O)cc2)N(CC2CCCCCC2)C1=S (stereo partly drawn)
28	O=C(OCc1ccccn1)c1ccc(COc2ccccc2Cl)o1
29	CCCCC1=NN(C(=O)c2cocc2C)C(O)(C(F)(F)F)C1 (stereo not drawn)
30	O=C(c1ccc2ccccc2c1)C1CCCN(C(=O)c2cccnc2)C1 (stereo not drawn)
31	N#CCCSC(=S)C1CCCC1=N (stereo not drawn)
32	CCCc1cc(=O)n2nc(N3CCC(C(=O)N4CCN(c5cccc(OC)c5)CC4)CC3)sc2n1

compound no.,25,26,27,28,29,30,31,32
MT1-MMP act inh,-4,4,-17,-1,-2,-1,2,4
MT1-MMP act inh RFP,-2,-8,-24,0,0,4,5,-20
UUG fidelity,0,-16,4,-21,-8,-18,-9,9
Rce1 inh,i,x,x,i,i,i,x,i
CSC inhib,-6,x,x,4,-11,-9,x,26
Env fusion inh,5,u,-40,x,x,0,3,23
PABP FP inh,11,2,x,-2,0,-10,x,0
eIF4H FP inh,1,-10,x,6,-1,-9,x,-8

33	COc1cc2c(cc1OC)CN(CC(=O)NC(=O)NC(C)(C)C)CC2
34	Cc1ccsc1C(=O)N1CCC1(C)C(=O)NS(=O)(=O)c1ccccc1C(F)(F)F (stereo not drawn)
35	Cc1ccc(-c2ccc(CCC(=O)O)n2NC(=O)c2ccc([N+](=O)[O-])cc2)cc1
36	Cc1cccc(C)c1NC(=O)c1ccc2sc([C@@H]3O[C@H](CO)[C@H](O)[C@H](O)[C@H]3O)nc2c1
37	O=C(NCC1CCCCC1)C1(CC2CC(c3cccc(Br)c3)=NO2)CCNCC1 (stereo not drawn)
38	Cc1cc(N2CCCC(C(=O)Nc3cccc4ccccc34)C2)n2ncnc2n1 (stereo not drawn)
39	COc1ccc(-c2ccc(C(=O)Nc3cccc(Oc4ccccc4)c3)c3occc23)c(C)c1
40	Cc1ccc(C)c(N(C(=O)c2csnn2)C(C(=O)NC2CCCC2)c2ccncc2)c1 (stereo not drawn)

compound no.,33,34,35,36,37,38,39,40
MT1-MMP act inh,-1,2,10,-3,0,-7,-3,3
MT1-MMP act inh RFP,4,6,0,3,5,-9,-24,5
UUG fidelity,x,7,13,24,-16,-6,-11,-11
Rce1 inh,i,x,x,x,i,i,x,i
CSC inhib,0,x,-3,x,-4,-2,x,-8
Env fusion inh,3,-5,-5,10,3,-53,23,16
PABP FP inh,0,x,-4,x,2,-3,x,4
eIF4H FP inh,-8,x,-4,x,-12,12,x,-3

41	Cn1cc(C(=O)NCc2ccc(F)cc2)cn1
42	Cc1ccc(C)c(NC(=O)CCN2CCN(CCO)CC2)c1
43	O=C1CC(c2cccc(O)c2)Oc2ccccc21 (stereo not drawn)
44	Cc1ccc(SCc2ccc(C(=O)Nc3cccnc3)cc2)cc1
45	CCOC(=O)c1cccc(NC(=S)NC(=O)c2cccnc2)c1
46	COc1ccc(C[C@H]2CN3C(=NC[C@@H]3C)N2CCNC(=O)CCC2CCCCC2)cc1
47	Clc1ccc(OCCn2ccnc2)c2ccccc12
48	O=C(Nc1ccc(S(=O)(=O)N2CCOCC2)cc1)c1cccs1

compound no.,41,42,43,44,45,46,47,48
MT1-MMP act inh,-1,1,-1,1,-1,6,-4,-11
MT1-MMP act inh RFP,2,3,3,-5,0,1,-3,-11
UUG fidelity,x,3,-5,x,-6,4,-23,-8
Rce1 inh,i,i,x,i,i,i,i,i
CSC inhib,-3,-6,6,x,-5,5,13,-1
Env fusion inh,-11,22,-12,-4,-4,-89,8,-60
PABP FP inh,8,13,x,-3,2,-5,-6,-13
eIF4H FP inh,-1,-3,x,-11,-4,3,-5,-3

49	CCOc1ccc(/C=C2\SC(=S)N(CC(=O)N(CCO)C(C)(C)C)C2=O)cc1
50	O=[N+]([O-])c1ccc(NN=C(Oc2ccccc2)c2ccc([N+](=O)[O-])cc2)cc1
51	Cc1cc(C)cc(NC(=O)Cn2nnc(C(=O)NCc3ccco3)c2N)c1
52	Cc1csc(=O)n1CCC(=O)OCc1nnc(-c2ccc([N+](=O)[O-])cc2)o1
53	COc1cc(C(=O)NCCNC(=O)c2ccco2)cc(OC)c1OC
54	O=C(O)/C=C\C(=O)Nc1ccc(N2CCN(c3ccc(Cl)cc3)CC2)cc1
55	O=C(C(c1ccccc1)c1ccccc1)N1CCN(c2ccccn2)CC1
56	CN(Cc1cnn(-c2ccccc2)c1)C(=O)c1cccc(S(=O)(=O)Nc2ccccc2F)c1

compound no.,49,50,51,52,53,54,55,56
MT1-MMP act inh,2,-17,3,4,1,6,4,-1
MT1-MMP act inh RFP,-5,-3,1,0,4,5,2,-7
UUG fidelity,x,-7,-13,-9,-17,-17,x,-1
Rce1 inh,i,x,i,x,x,i,i,x
CSC inhib,-3,x,2,-13,x,50,-9,x
Env fusion inh,10,2,3,-2,-6,16,-99,-6
PABP FP inh,-7,x,-8,x,x,12,14,x
eIF4H FP inh,-6,x,-3,x,x,14,-7,x

57	Cc1cc(NC(=O)COC(=O)c2ccc(S(=O)(=O)C(F)F)cc2)n(-c2ccccc2)n1
58	O=C(Nc1ccc2nc(-c3cccnc3)[nH]c2c1)c1ccccc1F
59	Cc1nc(SCC(=O)N2CCN(C(=O)c3cccs3)CC2)c2c(C)c(C)sc2n1
60	O=C(CN1C(=O)NC2(CCc3ccccc32)C1=O)Nc1ccc(Cl)cc1F (stereo not drawn)
61	COc1ccc(-n2cc(CNCCc3cscn3)c(-c3ccccc3Cl)n2)cc1

compound no.,57,58,59,60,61
MT1-MMP act inh,2,10,-1,0,x
MT1-MMP act inh RFP,3,4,-9,-1,x
UUG fidelity,2,7,-15,-11,x
Rce1 inh,i,i,x,x,i
CSC inhib,-12,-9,x,x,-10
Env fusion inh,-57,-78,-86,-1,-3
PABP FP inh,x,9,x,x,-14
eIF4H FP inh,x,0,x,x,4
